T cruzi repl – blocks replication of Trypanosoma cruzi; inhibition, % (no concentration beside the values); T. cruzi beta-gal in NIH3T3, luminescence, 90 h; actives 1.4% (n = 300,000); AID 1885;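 active = mean inhibition across valid replicates above about 55%, limit read from the data; inconclusive = mean below that limit but half or more replicates reach it; inactive = mean below it, under half of replicates reach it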;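 also: signal also drops with host cell toxicity which is not excluded here; 0% = plate median of DMSO wells and 100% = zero luminescence signal; higher percent means less beta-gal luminescence so fewer parasites; stock transfer was 50 nL into about 50 µL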
Vif A3G – HIV-1 Vif–A3G interaction blockers – biochemical, TR-FRET, GST-Vif 1-94, biotin-A3G peptide, dose response retest, primary screen (AID 1117319) | TR-FRET GST-Vif / biotin-A3G peptide binding; higher % means a stronger effect; test concentration not given here; strong numbers were not always called active | one-dose inhibition, %; IC50 in µM for titrated hits | actives 0.57% (n = 260,000);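 active = above the screen mean plus three standard deviations and confirmed in dose response; inconclusive = results disagree or hit not tested in dose response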;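 also: Vif residues 1-94 fused to GST binding biotinylated APOBEC3G peptide 110-148; 0% = full assay without inhibitor and 100% = GST in place of GST-Vif; retest series ran down from 100 µM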
LANA-H2B inh – blocks KSHV LANA binding to histone H2A/H2B | actives 0.6% (n = 320,000) | AID 2629 | inhibition, % (concentration not given with the values) | Q9QR71 | cell-free LANA-H2A/H2B peptide, fluorescence polarization; in the data active = inhibition mostly above about 10%, no sharp cut-off; inactive = mostly below about 6.7%;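 also: stock transfer was 7.5 nL into about 10 µL; 0% = median of vehicle wells and 100% = median of positive control wells; one replicate is shown; the record names a cut of 25% in any replicate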
Target sequence (Q9QR71 whole entry, looked up): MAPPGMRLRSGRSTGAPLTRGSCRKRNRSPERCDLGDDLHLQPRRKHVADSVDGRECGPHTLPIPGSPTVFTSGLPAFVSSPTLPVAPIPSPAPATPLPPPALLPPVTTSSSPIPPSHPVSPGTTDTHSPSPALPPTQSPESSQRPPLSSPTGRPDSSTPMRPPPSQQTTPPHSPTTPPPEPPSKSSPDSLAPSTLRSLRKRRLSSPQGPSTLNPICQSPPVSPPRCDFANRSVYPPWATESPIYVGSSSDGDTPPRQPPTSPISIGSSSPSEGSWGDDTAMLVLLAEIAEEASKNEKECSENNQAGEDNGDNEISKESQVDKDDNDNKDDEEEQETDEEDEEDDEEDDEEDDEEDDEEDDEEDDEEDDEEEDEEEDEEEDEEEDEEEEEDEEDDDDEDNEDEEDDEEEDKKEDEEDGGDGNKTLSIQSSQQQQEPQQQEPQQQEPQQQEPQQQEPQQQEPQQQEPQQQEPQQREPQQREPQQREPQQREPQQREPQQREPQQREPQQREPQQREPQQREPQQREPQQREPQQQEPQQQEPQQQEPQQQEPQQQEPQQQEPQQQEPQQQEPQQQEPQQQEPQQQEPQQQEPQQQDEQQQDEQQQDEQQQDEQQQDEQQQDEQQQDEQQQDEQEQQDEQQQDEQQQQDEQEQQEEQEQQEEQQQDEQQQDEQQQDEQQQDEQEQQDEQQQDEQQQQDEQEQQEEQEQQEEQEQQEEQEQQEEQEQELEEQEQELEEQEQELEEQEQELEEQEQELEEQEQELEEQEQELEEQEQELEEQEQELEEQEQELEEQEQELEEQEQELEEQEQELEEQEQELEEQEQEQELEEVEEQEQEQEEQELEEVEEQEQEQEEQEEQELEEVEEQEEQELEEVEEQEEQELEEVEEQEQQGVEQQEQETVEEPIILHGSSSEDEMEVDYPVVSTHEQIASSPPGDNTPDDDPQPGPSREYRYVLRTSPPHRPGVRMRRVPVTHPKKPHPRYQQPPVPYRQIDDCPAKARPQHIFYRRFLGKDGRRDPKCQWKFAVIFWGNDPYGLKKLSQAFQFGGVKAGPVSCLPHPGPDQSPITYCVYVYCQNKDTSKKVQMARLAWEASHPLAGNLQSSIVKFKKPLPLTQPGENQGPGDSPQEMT
Calb FLC – C. albicans growth modulation with fluconazole; C. albicans CaCi-2 (fluconazole-resistant clinical isolate) + fluconazole, Alamar Blue growth, 48 h; actives 0.57% (n = 300,000); growth inhibition, % (no concentration beside the values);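 active = most replicates above 75%; inconclusive = exactly half above 75%; inactive = most below 75%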;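 also: all wells also contain fluconazole at 8 µg/ml as a sub-toxic cotreatment; 0% = median of DMSO wells and 100% = median of geldanamycin control wells; wells of about 8 µL received 7.5 nL stock; the first replicate is given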
RanGTP-Imp inh – disruptors of Ran-importin-beta complex formation – biochemical, FRET, CFP-Ran, YFP-importin-beta, homogeneous, primary screen; cell-free CFP-Ran/YFP-importin-beta FRET ratio; inhibition, % (concentration not given with the values); actives 1.1% (n = 300,000); AID 2216;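 active = most replicates above 15%; inconclusive = exactly half above 15%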;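 also: 0% = DMSO wells and 100% = Ran loaded with GDP instead of GTP; wells of about 40 µL received 100 nL stock; the first replicate is given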
A1 inh – inhibitors of the anti-apoptotic protein A1, read as caspase activation | AID 2462 | caspase activation, % (no concentration beside the values) | MEF A1-2A-BIM cells, Caspase-Glo 3/7 luminescence, 3 h; percent of clofoctol response, vehicle zero | actives 0.066% (n = 330,000);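 active = over half of replicate activation scores above 10%, or exactly half above 10 with the replicate mean above 10; inconclusive = replicate mean below 10 yet half the replicates above 10; inactive = over half of replicates below 10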;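 also: wells of about 30 µL received 50 nL stock; many hits fall short of the cut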
AF4-AF9 inh – blocks AF4 peptide binding to human AF9. inhibition, % at 10 µM. actives 0.47% (n = 350,000). AlphaScreen, biotin-AF4 peptide binding to FLAG-AF9. P42568;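 active = every replicate reaching a set inhibition limit, whatever the replicate mean, cut at about 25% in these data; inconclusive = mean inhibition reaches that limit but some replicates miss it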;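 also: 0% = plate neutral control median and 100% = total signal loss; the record names both 10 and 1 µM as test concentration; the first replicate is given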
Beta cell apopt – blocks beta cell apoptosis | INS-1E cytokine-induced death, ATP luminescence, 48 h; percent of positive-control rescue, neutral wells zero | protection from apoptosis, % (no concentration beside the values) | actives 0.8% (n = 300,000) | AID 435005;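 active = all replicates at 75% or more, or half of them and the mean; inconclusive = half reach 75% but not the mean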;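 also: 0% = cytokine-treated negative control wells and 100% = positive control rescue; higher means more ATP so stronger rescue from cytokine killing; wells of about 40 µL received 100 nL stock; the first replicate is given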
* = called active by the depositor; ? = inconclusive; nt = not tested or not shown; & = joins results of further samples. This is a random part of the collection; overall some 4.3% were active at least once.

Molecule	Beta cell apopt	Vif A3G	RanGTP-Imp inh	Calb FLC	AF4-AF9 inh	T cruzi repl	LANA-H2B inh	A1 inh
Cc1cc(OCC(=O)N2CCC(C(=O)O)CC2)c2c(C)c(C)c(=O)oc2c1	3	nt	-0.8	-2	6.5	-2	-0.2	0.3
COc1cccc(OC)c1OCCCCCCN1CCN(C)CC1	-5	-4%	-10	1	-24	11	0.1	1.2
COc1ccc(NC(=O)CNS(=O)(=O)c2cccs2)cc1	-3	-8%	1.4	8	nt	3	-0.9	0.5
O=C(O)C1Nc2ccc(C(F)(F)F)cc2C2OCCC12 (stereo not given)	-2	nt	?	-10	nt	-9	0.4	-1.9
O=C(Cn1c(CO)nc2ccccc21)NCCc1ccccc1	-2	5%	?	2	-1.9	-11	-3.4	1.0
CCN1CNC(=S)N(C(C)c2ccccc2)C1 (stereo not given)	2	nt	8.1	18	2.8	-18	-0.7	0.0
CCc1cccc(N(CC(=O)NC2CCCCC2)C(=O)c2csnn2)c1	0	nt	5.7	-2	0.6	-3	2.9	0.3
O=c1[nH]c(SCc2ccccc2)nc2c1cnn2-c1ccc(F)cc1	nt	nt	28*	-4	-5.5	-3	-1.6	0.4
Cc1ccc(C(=O)N2CCN(c3cccc(Cl)c3)CC2)cc1C	0	20%	-5.5	-4	1.5	-31	-2.6	0.1
COc1ccc(NC(=O)Cn2nnc(C(=O)Nc3ccccc3C)c2N)cc1	2	nt	-1.4	-1	-1.4	-12	5.5	0.2
Cc1c(NC(=O)C(C)OC(=O)c2cccc(S(=O)(=O)N(C)C)c2)c(=O)n(-c2ccccc2)n1C (stereo not given)	-1	8%	-1.5	6	-1.1	3	-1.7	0.1
COc1ccc(N=C2SC(CC(=O)Nc3ccccc3F)C(=O)N2Cc2ccco2)cc1 (stereo not given)	3	-7%	2.1	-2	nt	20	-1.1	1.5
COC(=O)CS(=O)(=O)c1ccsc1C(=O)Nc1ccc(F)c(F)c1	0	15%	-5.2	22	0.9	-5	3.1	0.6
O=C1C2=C(SCCS2)C(=O)N1CCCO	-7	-3%	-13	-1	nt	-14	2.5	-0.6
CCCOc1c(OC)cccc1C1CC(=O)Nc2cc3c(cc21)OCO3 (stereo not given)	nt	7%	0.8	-5	nt	14	0.8	0.7
CCOC(=O)C1CCN(C(=O)c2cccc(S(=O)(=O)N(C)C3CCCCC3)c2)CC1	nt	5%	7.8	-11	1.3	27	-2.3	-0.3
COc1ccc(-c2nc3c(c4nnc(SC(C)C(=O)Nc5ccc(C)cc5)n24)COC(C)(C)C3)cc1 (stereo not given)	15	nt	-1.3	4	2.1	22	-4.3	0.6
O=C(NCCO)c1ccc2c3n(nc2c1)-c1ccccc1CO3	12	nt	-2.3	0	nt	-14	-11	0.1
COc1ccc(NC(=O)COC(=O)CC23CC4CC(CC(C4)C2)C3)c([N+](=O)[O-])c1	-1	20%	-14	1	nt	12	-5.3	?
Cc1ccc(C(=O)c2ccccc2C(=O)OCC(=O)N2CC(C)CC(C)C2)cc1 (stereo not given)	-10	3%	nt	nt	-2.4	nt	-5.2	2.8
CC1CN(C(=O)COc2ccc3ccccc3c2)CC(C)O1 (stereo not given)	0	-6%	nt	nt	-5.6	nt	-6.8	1.0
O=C(CSc1n[nH]c(=O)[nH]c1=O)N/N=C/C=C/c1ccccc1	-6	nt	0.3	-3	-1.9	-8	-5.5	0.4
N#CC1=C(N)NC(SCC(=O)Nc2ccccc2)=C(C#N)C12CCCCC2	-1	25%	-0.3	6	nt	-16	2.1	0.8
Cc1cccc(-n2ccnc2SCC(=O)Nc2cc(C)on2)c1	nt	5%	-3.2	-3	nt	-6	5.0	-0.4
Cc1ccc(C(=O)COC(=O)c2cccc(NC(=O)c3ccc([N+](=O)[O-])cc3[N+](=O)[O-])c2)cc1	8	19%	?	5	nt	71*	-1.9	-3.1
COc1ccccc1/C=C/C(=O)c1cc(Br)ccc1OC(=O)c1ccco1	20	nt	5.8	4	nt	-11	-2.1	1.6
COC(=O)C1CN(C(=O)C(C)Oc2cc(C)ccc2C(C)C)c2ccccc2O1 (stereo not given)	-13	5%	-2.2	0	2.1	-16	1.7	0.5
Cc1csc(SCC(=O)NCc2cccs2)n1	-4	3%	1.3	9	7.0	5	-0.9	0.1
CC(O)(CS(=O)(=O)Cc1ccccc1)c1ccc(Cl)cc1 (stereo not given)	-4	2%	-0.9	0	-1.2	1	7.4	0.7
O=C(N/N=C/c1cccnc1)c1ccc(NC(=O)c2ccccc2Cl)cc1	3	nt	2.5	-5	-0.9	0	4.8	0.0
O=C(NC(=S)Nc1cccnc1Cl)c1ccco1	-4	3%	-0.2	-2	-3.5	-9	1.3	-5.9
O=C(OCC(=O)N1CCN(C(=O)COC(=O)c2ccncc2)CC1)c1ccncc1	2	2%	2.4	10	nt	-7	-3.0	-0.4
CN1CCN(C(=O)c2cc(=O)c3cc(Cl)cc(Cl)c3o2)CC1	-6	-1%	2.0	-12	0.0	-10	-5.2	0.3
O=S(=O)(c1ccc(NC(=S)NCc2ccc(F)cc2)cc1)N1CCOCC1	-4	1%	7.6	2	0.0	5	1.2	0.8
Cc1cc(C)n(-c2ccc(C(=O)OCC(=O)NCc3ccc(Cl)cc3)cc2)n1	-1	-9%	3.5	11	-2.7	-14	-3.2	-0.4
COC(=O)c1cc(-c2ccccc2)n(CC(=O)O)c1C	-5	16%	nt	nt	nt	nt	3.6	0.2
COC(=O)c1ccc2c(=O)[nH]c(CN3c4ccccc4CC3C)nc2c1 (stereo not given)	-9	8%	-1.2	-11	nt	-22	-1.3	0.8
CC(C)N(CC#CCC1(O)c2ccccc2-c2ccccc21)CCO	-9	6%	0.4	-14	-11	7	-5.6	0.7
CCN1C(c2ccccc2)C(C)C(=O)C(C)C1c1ccccc1 (stereo not given)	-6	-6%	1.0	-4	nt	12	1.5	-0.7
Cc1ccc(NC(=O)CSc2nnc(-c3ccncc3)o2)cc1C	-7	-10%	3.8	1	-1.3	-4	2.2	-0.3
Cc1ccc(NC(=O)COC(=O)C2CSC3(C)CCC(=O)N23)cc1S(=O)(=O)N1CCOCC1 (stereo not given)	-5	-1%	-5.3	6	-0.9	-9	-4.9	-0.4
CCN(CC(=O)Nc1ccc(NC(C)=O)cc1)C(=O)CCN1C(=O)c2cccc([N+](=O)[O-])c2C1=O	2	2%	3.1	-2	0.2	-5	-6.6	0.4
Cc1noc(C)c1-c1nc(CSc2ccccc2)no1	-2	-11%	-2.0	-13	-6.4	3	2.3	0.3
CC(=O)O[C@@H]1C[C@H]2C(C)=C[C@H]3OC(=O)[C@@H](C)[C@H]3C[C@H]2[C@]1(C)O	-3	14%	0.1	0	1.2	-10	-5.9	-0.3
Cc1onc(-c2c(F)cccc2Cl)c1C(=O)NC1CC1	2	nt	0.7	7	-5.9	6	4.3	0.3
Cc1nc2c(c(=O)n1CCC1=CCCCC1)c1nc3ccccc3nc1n2/N=C/c1ccccc1	2	-1%	-0.9	-9	nt	16	-0.9	-0.3
C/C(=N\NC(=O)Cn1nc(C)c([N+](=O)[O-])c1C)c1ccco1	-5	17%	0.1	-4	-1.4	3	0.8	1.1
CCOC(=O)Cc1csc(SCC(=O)N2CCN(c3ccc(OC)cc3)CC2)n1	-2	9%	-0.4	39	nt	-11	-1.2	-0.6
COc1ccc(Cl)cc1C(Nc1cccnc1)c1ccc2cccnc2c1O (stereo not given)	nt	-8%	3.9	102*	26*	72*	-6.8	1.1
Oc1c(C=NCc2ccc(F)cc2)[nH]c2ccc(Br)c(Cl)c12	-27	?	2.1	13	nt	12	-0.6	0.8

Additional entries follow.
Molecule	Beta cell apopt	Vif A3G	RanGTP-Imp inh	Calb FLC	AF4-AF9 inh	T cruzi repl	LANA-H2B inh	A1 inh
CCOC(=O)c1c(NC(=O)C2C3CCC(O3)C2C(=O)O)sc(C)c1-c1ccc(F)cc1 (stereo not given)	-7	-8%	2.5	-1	nt	0	14	-0.2
COc1ccc(C(=O)NC(=S)NNC(=O)CNC(=O)C2CCCCC2)cc1	3	1%	3.5	-1	-0.6	-12	-0.5	-0.1
C[C@@H]1CN([C@H](C)CO)C(=O)c2cc(NS(=O)(=O)c3cn(C)cn3)ccc2O[C@@H]1CN(C)S(C)(=O)=O	-2	nt	nt	nt	-2.2&-0.4	nt	9.5	1.7
CN(C)c1ccc(NC(=O)COC(=O)c2cc(Cl)ccc2[N+](=O)[O-])cc1	0	6%	0.0	-17	12	-20	-3.0	0.5
S=C1Nc2ccccc2Sc2ccc(Cl)cc21	-6	nt	0.0	-11	2.9	1	4.3	-0.6
COc1ccc(OC)c(Nc2nc(N)nc(CCl)n2)c1	-6	8%	-1.4	-6	2.2	nt	1.9	0.5
CN(C)/C=C/C(=O)c1ccn(S(=O)(=O)c2ccccc2)c1	-2	-6%	-0.8	-3	-3.2	3	2.4	-0.8
Cn1cnnc1SC(C(=O)c1ccccc1)c1ccccc1 (stereo not given)	-4	-9%	-3.0	nt	nt	7	0.7	-6.0
CCOC(=O)/C(C#N)=C/c1c(N2CCN(C)CC2)nc2ccccn2c1=O	2	-9%	101*	-7	-1.1	-8	1.9	0.0
COC(=O)CN1C(=O)c2cccc3cccc1c23	-5	0%	4.1	0	-2.5	3	-1.3	0.0
CC1CCN(C(=O)c2[nH]cnc2C(=O)NC2CCN(C(=O)OC(C)(C)C)CC2)CC1	1	nt	nt	nt	15	nt	1.1	0.4
Cc1n(CC(O)COCc2ccccc2)c2ccccc2[n+]1C (stereo not given)	1	0%	0.6	-19	nt	-8	4.7	1.0
NC(=O)CN1CCN(C(=O)NC2CCCCC2)CC1	2	3%	-2.8	-10	1.0	-13	-5.9	-0.4

High-throughput results as filed in PubChem BioAssay.
